# TRPML1 ag: qHTS for Agonists of the Human Mucolipin Transient Receptor Potential 1 (TRPML1) | activation, % (test concentration not listed) | 410,000 tested, 0.12% active | TRPML1-expressing cells, Ca2+ dye fluorescence, FDSS; host cell line not named in the record; reference of the full effect not given here | AID 624414, 2012; in the data active = activation above about 50%; inconclusive = about 30% to 50%; inactive = below about 30%; further: 0% is about no effect; the text of the record puts the active cut at 80%
# Target sequence (Q9GZU1 whole entry, looked up): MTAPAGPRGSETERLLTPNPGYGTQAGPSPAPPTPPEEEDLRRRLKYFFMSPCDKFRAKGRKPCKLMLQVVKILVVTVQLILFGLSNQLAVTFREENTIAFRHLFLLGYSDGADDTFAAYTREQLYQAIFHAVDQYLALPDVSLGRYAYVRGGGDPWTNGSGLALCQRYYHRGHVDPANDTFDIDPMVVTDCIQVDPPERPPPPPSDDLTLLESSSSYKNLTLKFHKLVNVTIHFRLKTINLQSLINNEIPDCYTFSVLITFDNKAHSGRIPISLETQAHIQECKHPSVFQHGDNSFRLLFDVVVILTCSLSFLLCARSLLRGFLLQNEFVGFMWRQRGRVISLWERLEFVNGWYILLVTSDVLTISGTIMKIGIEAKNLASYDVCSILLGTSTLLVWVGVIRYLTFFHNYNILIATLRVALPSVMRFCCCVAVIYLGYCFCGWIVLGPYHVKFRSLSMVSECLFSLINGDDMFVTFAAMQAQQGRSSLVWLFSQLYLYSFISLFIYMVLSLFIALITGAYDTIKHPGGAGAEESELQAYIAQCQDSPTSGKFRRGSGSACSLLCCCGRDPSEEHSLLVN
#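 Kinetic FDSS Ca2+ read in Tet-induced TRPML1-DL cells (ABD Ca8 dye plus quencher, 45-90 min RT loading): baseline, then compound, then 110 s agonist window; EC80 agonist 54-4 at 4uM final added afterwards for a 110 s antagonist window.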
# CtBP-E1A inh: qHTS Assay for Inhibitors of the CtBP/E1A Interaction | CtBP / adenovirus E1A interaction (AlphaScreen) | AlphaScreen GST-E1A/His-CtBP binding, 1536-well; hits give low values; control for the full effect not named in the record | activity change, % (no concentration beside the values) | 340,000 tested, 0.49% active | AID 651724, 2012; in the data active means activity change below about -65%; inconclusive means about -30% to -65%; inactive means above about -30%; further: on the % scale 0 is the no-effect control and ±100 the full control effect; compound concentration not given in the record
#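 Homogeneous bead-based format: GST-tagged E1A captured on glutathione donor beads, His-tagged CtBP on nickel acceptor beads; compounds precede bead addition by 2 h at 37 °C.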
# Six1-Eya2 blk: qHTS Assay for Inhibitors of the Six1/Eya2 Interaction | Homeobox protein SIX1 (Homo sapiens) + Protein phosphatase EYA2 (Homo sapiens), … | AlphaScreen GST-Six1/His-Eya2 binding, biochemical; hits give low values; control for the full effect not named in the record | activity change, % (no concentration beside the values) | 360,000 tested, 0.56% active; in the data active = activity change below about -65%; inconclusive = about -30% to -65%; inactive = above about -30%; further: on the % scale 0 is the no-effect control and ±100 the full control effect; compound concentration not given in the record
#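 AlphaScreen with GST-Six1 and His-Eya2 (5X mix: 250 nM and 500 nM), glutathione donor and nickel acceptor beads; buffer 50 mM Tris pH 8.0, 300 mM NaCl, 1 mM TCEP; 1 h at 37 C in the dark.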
# D2 agonist: Beta-Arrestin HTS for Positive Allosteric Modulators of the Human D2 Dopamine Receptor: Agonists | D(2) dopamine receptor (Homo sapiens), P14416 | DiscoveRx PathHunter D2 beta-arrestin, luminescence, 90 min; 100% = 57 uM dopamine signal | activation, % (test concentration not listed) | 360,000 tested, 0.084% active | AID 624465, 2012; in the data active = activation above about 40%; inconclusive = about 15% to 40%; inactive = below about 15%; further: compound concentration not given in the record; the text of the record calls up to 30% inactive
# Target sequence (P14416 whole entry, looked up): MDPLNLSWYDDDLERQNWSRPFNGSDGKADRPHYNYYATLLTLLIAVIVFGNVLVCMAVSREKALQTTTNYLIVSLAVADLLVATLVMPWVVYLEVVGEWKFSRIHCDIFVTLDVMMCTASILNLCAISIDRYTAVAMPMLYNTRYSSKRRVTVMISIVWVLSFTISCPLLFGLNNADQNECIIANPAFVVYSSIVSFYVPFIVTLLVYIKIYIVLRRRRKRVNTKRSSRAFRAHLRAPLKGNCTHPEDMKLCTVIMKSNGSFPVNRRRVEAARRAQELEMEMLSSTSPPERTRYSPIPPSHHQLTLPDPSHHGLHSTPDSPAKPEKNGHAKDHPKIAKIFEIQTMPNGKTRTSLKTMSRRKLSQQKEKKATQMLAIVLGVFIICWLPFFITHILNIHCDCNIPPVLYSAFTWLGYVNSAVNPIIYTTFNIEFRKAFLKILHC
#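 Agonist mode: compounds alone added to overnight-plated D2 PathHunter cells for 90 min at 37 C, with 57 uM final dopamine (EC100) defining full response. Beta-arrestin recruitment detected by chemiluminescent reagent, read after 1 h at ambient temperature.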
# TRPML1 blocker: qHTS for Inhibitors of the Human Mucolipin Transient Receptor Potential 1 (TRPML1) | Mucolipin-1 (Homo sapiens), Q9GZU1 | TRPML1-inducible cells, Ca2+ dye fluorescence, FDSS; hits give low values; inhibition of EC80 agonist-evoked calcium signal | activity change, negative = inhibition, % (test concentration not listed) | 390,000 tested, 0.02% active; in the data active means activity change below about -50%; inconclusive means about -30% to -50%; inactive means above about -30%;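 further: stimulus is agonist 54-4 at its EC80 concentration; on the % scale 0 is the no-effect control and ±100 the full control effect; compound concentration not given in the record; the text of the record puts the active cut at -80%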
#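 TRPML1-DL cells, Tet-induced overnight (~16 h, 37 °C) at 1,500 cells/well, were loaded with Ca8 no-wash dye plus quencher for 45-90 min at room temperature. Compounds were pinned during FDSS kinetic reading; agonist 54-4 at EC80 (4 uM final) then added.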
# PINK1 expr mod: A Quantitative High throughput Screen to Identify Chemical Modulators of PINK1 Expression | PINK1 immunofluorescence, high-content cytometry, 24 h | Potency, µM (highest dose often 76.6 µM), for inactives: at the top dose activation (PINK1 increase), actives largely listed as activators | 410,000 tested, 0.2% active | AID 624263, 2012; active = well fitted activation curve with a large enough effect; inconclusive = small, poorly fitted or top-dose-only effect; inactive = flat fitted curve, though single readings scatter; cell line not stated here;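 further: potency means the concentration at half of the fitted maximal effect; % of control where 0% means no effect; nearly all actives have a fitted effect of over 65% in size; a mitochondrial uncoupler was the plate control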
#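 PINK1 protein, normally rapidly degraded, was detected by immunofluorescence after 24 hour compound treatment of a stable cell line. Titration data (5 concentrations) came from laser-scanning cytometry, with CCCP-treated wells as controls.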
# * marks the source's active call; other numbers are inactive results; ? = inconclusive; . = not tested or not shown; [ ] = another dose, or the depositor's remark.
# Below each SMILES: TRPML1 ag, CtBP-E1A inh, Six1-Eya2 blk, D2 agonist, TRPML1 blocker, PINK1 expr mod
O=S(=O)(Nc1cc(Sc2cccc3cccnc23)c(O)c2ccccc12)c1ccc(F)cc1
 : 2.8, -92*, -94*, 5.9, 0, 0.5%
Cc1c(C(=O)Oc2cccc3ccccc23)cnn1-c1ccccc1
 : 2.5, 20, 7, 2.6, 74, 1.2%
CCOc1ccc(CCNC(=O)c2ccc3c(c2)nc2n3CCOC2)cc1OCC
 : -0.4, ., ., ., 3, 0.6%
CC(C(=O)NC(c1ccccc1)c1ccccc1)N1CCOCC1 (stereo unspecified)
 : -0.4, 3, -2, -5.5, -2, 2.0%
O=C(NCc1n[nH]c(=S)n1-c1cccc(C(F)(F)F)c1)c1ccc(S(=O)(=O)N2CCCCC2)cc1
 : 0.0, -8, 1, -2.0, 3, 2.8%
CC(C)(C)c1cc(NS(=O)(=O)c2ccc3c(c2)OCCO3)on1
 : -0.9, -7, 6, 3.9, -17, 0.4%
Cc1cccc(NC(=O)N2CC=C(c3c[nH]c4ccccc34)CC2)c1C
 : 3.5, ., ., ., -7, -0.4%
Cc1cn(C2CC(O)C(CO)O2)c(=O)n(CCCc2ccccc2)c1=O (stereo unspecified)
 : 0.1, 21, 1, -3.6, 3, 2.3%
COc1cc(/C=C/C(C)=O)cc(OC)c1OC
 : -0.2, 7, -1, -3.4, 7, 0.8%
O=C(CCNS(=O)(=O)c1cccc2nonc12)N1CCN(c2cccc(Cl)c2)CC1
 : 1.7, -10, -6, 2.1, -9, -3.7%
COc1cc2c(cc1OC)CN(CC(=O)Nc1ccc3c(c1)OC(F)(F)O3)CC2
 : -0.3, -14, -9, -4.8, 69, 4.8%
CC(C)Cn1c(=O)c(C(=O)NCc2ccc3c(c2)OCO3)c(O)c2ccccc21
 : 1.4, ., 6, 4.8, -2, 13%
C=CCNc1nc2c(c(=O)[nH]c(=O)n2C)n1CC(O)COc1ccc2ccccc2c1 (stereo unspecified)
 : -0.2, -12, 5, 3.3, -4, -2.4%
Cc1cc(C(C)(C)C)c(OC(=O)[C@@H]2OC(c3ccccc3)=C[C@H]2c2ccccc2)c(C(C)(C)C)c1
 : -0.5, 3, -1, -1.0, 34, 1.0%
CC(CO)N1CCS(=O)(=O)CC1 (stereo unspecified)
 : 0.9, 6, 8, 1.2, -3, 0.6%

# Random excerpt: 2 compounds from above
# Below each SMILES: TRPML1 ag, CtBP-E1A inh, Six1-Eya2 blk, D2 agonist, TRPML1 blocker, PINK1 expr mod
CC(C(=O)NC(c1ccccc1)c1ccccc1)N1CCOCC1 (stereo unspecified)
 : -0.4, 3, -2, -5.5, -2, 2.0%
CC(CO)N1CCS(=O)(=O)CC1 (stereo unspecified)
 : 0.9, 6, 8, 1.2, -3, 0.6%

# Carrying on:
# Below each SMILES: TRPML1 ag, CtBP-E1A inh, Six1-Eya2 blk, D2 agonist, TRPML1 blocker, PINK1 expr mod
CCOc1ccc(NC(=O)CN2CCN(CC(=O)Nc3ccc4c(c3)OCCO4)CC2)cc1
 : 1.0, -3, 8, 1.1, 7, 3.7%
Cc1ccc(C)c(Oc2cc(NN3CCCCC3)c([N+](=O)[O-])cc2[N+](=O)[O-])c1
 : -0.5, -1, -1, -1.0, 15, 0.7%
O=Cc1cnc(N2CCN(Cc3ccccc3)CC2)s1
 : -0.3, 6, 6, 4.2, 17, -1.3%
COCOCCn1cc(CN2CCS(=O)(=O)N(Cc3ccc(-c4cccc(N(C)C)c4)cc3)C(C(C)C)C2=O)nn1 (stereo unspecified)
 : 0.2, -8, -23, -4.3, -3, 2.3%
COC(=O)C(CCC(=O)CN1C(=O)c2ccccc2C1=O)N1C(=O)c2ccccc2C1=O (stereo unspecified)
 : -0.6, 0, -2, -5.8, -7, -1.5%
CCOC1(c2ccccc2)OC(=O)c2ccccc21 (stereo unspecified)
 : 0.2, 7, 3, -10, 13, -1.0%
Cc1cc(Cl)c2oc(C(=O)N(C)CCCCN3CCOCC3)c(C)c2c1
 : -0.5, -5, -6, -1.5, 12, 0.5%
Cc1cc(C)c(NC(=O)c2cc(S(=O)(=O)NCCC3=CCCCC3)ccc2F)c(C)c1
 : 2.5, ., ., ., -1, 1.9%
O=C(Nc1cccc(F)c1)N1CC=C(n2c(=O)[nH]c3ccccc32)CC1
 : 0.4, 3, 4, 0.1, 3, -1.4%
CC(C)Cn1c(=S)[nH]c2ccccc2c1=O
 : 0.1, 4, 4, -7.0, 2, 2.6%
CCOC(=O)c1cc(-c2ccc(OC)cc2)n(CCC(=O)NCCN2CCC(C)CC2)c1C
 : -0.3, ., 3, -2.0, 1, 0.2%
COc1ccc(-c2cc(C(=O)Nc3ccc(S(=O)(=O)Nc4onc(C)c4C)cc3)c3ccccc3n2)cc1OC
 : 0.7, ., -10, -3.4, 0, 3.5%
COc1ccc(NC(=O)c2ccco2)c2ccccc12
 : ., ., -5, 2.8, ., 0.5%
Cc1cccc(NC(=O)C(C)SCc2ccccc2)c1 (stereo unspecified)
 : 1.2, 10, 2, 2.8, 10, 2.0%
CCOC(=O)C1CCCN(S(=O)(=O)c2cc3c4c(c2)CCN4C(=O)CC3)C1 (stereo unspecified)
 : 0.4, 9, 7, ?, -5, -1.2%
CC(C)OC(=O)c1cc(Cl)c(=O)n(Cc2ccc(Cl)cc2Cl)c1
 : 1.4, ., 3, 5.4, 37, 2.1%
COc1ccc(Nc2nnc(SC(C)C(=O)NC3CC3)s2)cc1 (stereo unspecified)
 : -0.4, -9, -14, 0.3, 6, -1.6%
COc1ccc(-c2cc(C(F)(F)F)nc(SCC(=O)Nc3sc4c(c3C#N)CCC4)n2)cc1
 : 0.7, 3, 0, 0.4, -12, ?
COc1ccc(CCNC(=O)CCS(=O)(=O)c2ccc(Br)cc2)cc1OC
 : 0.8, ., -1, 0.3, -5, -0.7%
COc1ccc(-c2c(C)n([O-])c3c([n+]2=O)CCCCC3)cc1
 : 0.2, -8, 4, 0.2, 0, -0.7%
Cc1ccc(C(O)c2ncc(-c3ccc(Cl)cc3)[nH]2)cc1F (stereo unspecified)
 : 0.2, -8, -13, -1.7, -6, 4.2%
Cc1cc(C)cc(N(CC(=O)NCC2CCCO2)C(=O)CCC(=O)Nc2cc(C)on2)c1 (stereo unspecified)
 : 1.7, -5, -2, -1.4, -1, -0.8%
O=C(NC(=S)Nc1ccc(CN2CCOCC2)cc1)c1ccc([N+](=O)[O-])cc1
 : 0.3, -1, -12, -0.3, 11, 2.6%
O=C(Nc1ccccc1F)c1ccc(C(=O)c2ccccc2)cc1
 : -0.3, 14, -6, 1.0, -4, 2.7%
O=C(/C(=C/O)N=Nc1ccc(Cl)cc1)c1ccncc1
 : 1.3, -8, -19, -1.5, 32, -4.1%
COc1cccc(N2CCN(C(=O)c3cc4ccc(OC)cc4[nH]3)CC2)c1
 : ., 0, 22, 4.0, ., 0.3%
Cc1ccc(C)c(N2CCN(c3ccc4cc(S(=O)(=O)N5CCCCC5)ccc4n3)CC2)c1
 : -0.2, -6, 3, 3.7, -8, -1.1%
COc1cc(NC(=O)NCc2ccncc2)cc(OC)c1OC
 : 0.7, -1, -1, 0.5, 4, .
O=C(Nc1nnc(Cc2ccc([N+](=O)[O-])cc2)s1)Nc1ccccc1F
 : -0.4, 7, 1, 1.9, -5, 4.7%
O=c1nc(Nc2ccc(Br)cc2)sc2ccc([N+](=O)[O-])cc12
 : ., 6, 0, -7.9, ., 2.1%
CCc1ccc(NC(=O)Cn2nc(C(F)(F)F)c3c2CCCC3)cc1
 : 0.6, ., ., ., 1, 2.3%
C/C(=N\NS(=O)(=O)c1ccc(Br)cc1)c1ccc(-n2ccnc2)cc1
 : -0.1, 1, -1, -0.7, 1, 6.0%
CS(=O)(=O)c1ccc2nc(NC(=O)C3CCCO3)sc2c1 (stereo unspecified)
 : 0.1, 4, 10, 1.9, -2, -0.6%
CCOc1ccccc1C(=O)NCC(=O)NCCCSc1ccccc1
 : 0.1, 1, 5, 4.2, 21, 3.1%
CCC(C)(C)NC(=O)Cc1ccc(OC)c(OC)c1
 : 0.1, 5, 2, -0.3, -3, .
O=C(CSc1nc2ccccc2[nH]1)N1CCN(c2ccccc2)CC1
 : -0.2, -11, -6, -2.0, -16, ?
O=C(CSC1=Nc2ccccc2C2CC=NN12)Nc1ccc(F)c(F)c1F (stereo unspecified)
 : 1.5, -8, 4, -0.9, 32, 4.2%
COc1ccc(-c2nc3cc(NC(=O)COc4ccc(F)cc4)ccc3o2)cc1
 : 2.2, ., ., ., -1, 8.5%
COc1cc(OC)cc(-c2c(Sc3ccccc3)c3cc(-c4ccc(OC)c(OC)c4)ccc3n2C)c1
 : 1.0, -8, -11, ., ., 2.4%
O=S(=O)(CCc1ccccc1)N1CCOCC1
 : 0.9, -2, 12, 1.2, -2, 2.4%
CC(C)CCNC(=O)Cn1c(=O)oc2cc(S(=O)(=O)N3CCc4ccccc43)ccc21
 : 0.9, -2, 6, -0.6, 14, 27%
Cc1ccc(O)c(NC(=O)c2cc3nc4c(c(C(F)(F)F)n3n2)CCc2ccccc2-4)c1
 : -0.1, ?, -25, -1.8, 22, 10%
O=C(N/N=C/c1c(Cl)[nH]c2ccccc12)c1sc2ccccc2c1Cl
 : 0.7, 3, -10, -0.6, 4, 2.0%
O=C(NO)c1ccc(C(=O)N(C2CCCCC2)C2CCCCC2)cc1
 : 0.9, -6, -1, -1.0, 6, -3.6%
COCCNC(=S)N1CCN(c2nc(-c3ccccc3)cs2)CC1
 : 0.7, -8, -18, -1.2, 3, -0.4%
COc1ccc(CCNC(=O)CSc2nccc(=O)[nH]2)cc1OC
 : -0.5, -3, 1, 1.5, -9, -0.5%
Cc1ccc(-n2nnnc2SCC(=O)NCC2(N3CCOCC3)CCCCC2)c(C)c1
 : 0.3, -5, -1, -0.5, -12, 0.4%
O=C(CNC(=O)c1ccco1)OCc1ccc(C(=O)c2ccccc2)cc1
 : 0.8, 9, 3, 0.7, 6, 1.0%
COc1ccc(-c2[nH]ncc2/C=N\NC(=O)c2ccc(C(C)(C)C)cc2)cc1OC
 : 0.8, -6, -19, -2.8, -7, 4.2%
CCOc1ccc(CCN2C(=O)C3C4C=CC(C4)C3C2=O)cc1OCC (stereo unspecified)
 : 1.3, 0, 1, -0.8, 3, -1.9%
Cn1nnc2ccccc2c1=O
 : -0.4, -10, 2, -0.1, 0, 3.3%
Cc1cc2n(n1)SC(Nc1ccc(F)c(Cl)c1)N2 (stereo unspecified)
 : -0.8, -18, -12, -3.2, -3, 13%[38.3 µM]
Cc1ccccc1C1C=C(c2ccc(Cl)cc2)Nc2nnnn21 (stereo unspecified)
 : 2.4, ., ., ., 3, 3.7%
COc1ccc2c(c1)CCc1c(C(=O)N3CC4(C)CC3CC(C)(C)C4)noc1-2 (stereo unspecified)
 : 1.1, 0, -4, -0.8, -2, ?

# From PubChem
